Screening results as filed in PubChem.
PINK1 expr mod: modulators of PINK1 expression. PINK1 immunofluorescence, high-content cytometry, 24 h. Potency, µM (doses to about 76.6 µM), inactives show top-dose activation (PINK1 increase), hits mostly activators. 0.2% of 410,000 active. AID 624263; active = well fitted activation curve with a large enough effect; inconclusive = small, poorly fitted or top-dose-only effect; inactive = flat fitted curve, though single readings scatter; cell line not stated here;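 note: potency is the fitted concentration of half-maximal effect; % of control where 0% means no effect; nearly all actives have a fitted effect of over 65% in size; a mitochondrial uncoupler was the plate control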
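Compound titrations (5 concentrations, 24 h) on a stable cell line; DMSO and CCCP controls. Endpoint: fixed-cell PINK1 immunofluorescence with mitochondrial, cell and nuclear markers, scanned by microplate cytometer.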
TRPML1 ag: activates the human TRPML1 channel. AID 624414. 0.12% of 410,000 active. TRPML1-expressing cells, Ca2+ dye fluorescence, FDSS; host cell line not named in the record; reference of the full effect not given here. Q9GZU1. activation, % (concentration not given with the values); in the data active = activation above about 50%; inconclusive = about 30% to 50%; inactive = below about 30%; note: 0% is about no effect; the text of the record puts the active cut at 80%
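Tet-induced TRPML1-DL cells, 1,500 per well, cultured overnight, were loaded with a no-wash Ca2+ dye for 45–90 min. Calcium fluorescence was recorded on the FDSS for 110 s after compound addition, before the EC80 agonist (4 uM 54-4) was added.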
TRPML1 inh: blocks the human TRPML1 channel | activity change, negative = inhibition, % (no concentration beside the values) | Q9GZU1 | TRPML1-inducible cells, Ca2+ dye fluorescence, FDSS; stronger effect = lower value; inhibition of EC80 agonist-evoked calcium signal | 0.02% of 390,000 active; in the data active means activity change below about -50%; inconclusive means about -30% to -50%; inactive means above about -30%;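 note: stimulus is agonist 54-4 at its EC80 concentration; % is set by controls: 0 for no effect and ±100 for the full control effect; compound concentration not given in the record; the text of the record puts the active cut at -80%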
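Tet-induced TRPML1-DL cells loaded with Ca8 no-wash calcium dye were read kinetically on FDSS. Compound addition was followed by EC80 agonist 54-4 (4 uM final); inhibition was read over 110 s.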
D2 potentiator: positive allosteric modulators of human D2 dopamine receptor; 0.23% of 360,000 active; DiscoveRx D2 beta-arrestin cells, luminescence, 90 min; 100% = 57 uM dopamine signal; P14416; AID 624464; potentiation, % (concentration not given with the values); active = potentiation of 50% or more; inconclusive = 30% to 50%; inactive = 30% or less;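 note: compound concentration not given in the record; tested on top of an EC20 dose of dopamine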
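PathHunter D2 cells, attached overnight at 37 deg C, received compound in DMSO plus dopamine at EC20 (50 nM final) for 90 min at 37 deg C. Beta-arrestin recruitment was read as luminescence after 1 h with detection reagent at ambient temperature.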
D2 agonist: activates the human D2 dopamine receptor | P14416 | DiscoveRx PathHunter D2 beta-arrestin, luminescence, 90 min; 100% = 57 uM dopamine signal | activation, % (test concentration not listed) | 0.084% of 360,000 active; in the data active = activation above about 40%; inconclusive = about 15% to 40%; inactive = below about 15%; note: compound concentration not given in the record; the text of the record calls up to 30% inactive
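Agonist mode: compounds alone added to overnight-plated D2 PathHunter cells for 90 min at 37 C, with 57 uM final dopamine (EC100) defining full response. Beta-arrestin recruitment detected by chemiluminescent reagent, read after 1 h at ambient temperature.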
Six1-Eya2 blk: Six1/Eya2 interaction inhibition; activity change, % (test concentration not listed); 0.56% of 360,000 active; AlphaScreen GST-Six1/His-Eya2 binding, biochemical; stronger effect = lower value; control for the full effect not named in the record; Q15475+O00167; AID 651725; in the data active = activity change below about -65%; inconclusive = about -30% to -65%; inactive = above about -30%; note: % is set by controls: 0 for no effect and ±100 for the full control effect; compound concentration not given in the record
Target sequence (O00167 whole entry, looked up): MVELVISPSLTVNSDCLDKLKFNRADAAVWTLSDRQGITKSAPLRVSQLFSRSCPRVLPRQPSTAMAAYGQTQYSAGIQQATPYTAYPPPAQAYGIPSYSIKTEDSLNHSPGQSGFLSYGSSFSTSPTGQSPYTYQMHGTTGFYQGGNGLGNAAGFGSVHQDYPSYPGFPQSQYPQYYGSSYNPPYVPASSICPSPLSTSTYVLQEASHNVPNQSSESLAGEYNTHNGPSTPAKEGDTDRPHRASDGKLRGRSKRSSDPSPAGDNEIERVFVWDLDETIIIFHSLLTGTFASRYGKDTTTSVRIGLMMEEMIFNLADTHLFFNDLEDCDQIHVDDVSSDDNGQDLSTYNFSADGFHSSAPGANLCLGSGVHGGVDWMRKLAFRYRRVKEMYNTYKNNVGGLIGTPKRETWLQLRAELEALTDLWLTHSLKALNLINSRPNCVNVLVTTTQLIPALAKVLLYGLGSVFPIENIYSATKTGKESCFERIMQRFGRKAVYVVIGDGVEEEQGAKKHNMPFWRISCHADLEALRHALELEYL
Target sequence (Q15475 whole entry, looked up): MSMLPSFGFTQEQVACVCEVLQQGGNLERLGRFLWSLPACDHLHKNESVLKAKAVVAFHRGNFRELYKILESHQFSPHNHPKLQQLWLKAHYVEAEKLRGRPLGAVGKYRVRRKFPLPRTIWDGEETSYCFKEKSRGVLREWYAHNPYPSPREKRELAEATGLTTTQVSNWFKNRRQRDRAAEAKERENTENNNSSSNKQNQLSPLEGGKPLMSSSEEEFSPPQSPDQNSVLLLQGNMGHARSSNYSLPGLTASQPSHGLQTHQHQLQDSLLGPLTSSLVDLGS
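Homogeneous AlphaScreen proximity assay pairing GST-Six1 with His-tagged Eya2 (added as 5X mix: 250 nM and 500 nM) in 50 mM Tris pH 8.0, 300 mM NaCl, 1 mM TCEP. Glutathione donor and nickel acceptor beads; 1 h, 37 °C, dark.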
Numbers without * were called inactive; ? = inconclusive; · = not tested or not shown; & = joins results of further samples; [ ] = another dose, or the depositor's remark.

Order of values: TRPML1 inh	Six1-Eya2 blk	D2 potentiator	D2 agonist	PINK1 expr mod	TRPML1 ag
Cc1cc(C)cc(NC(=O)COC(=O)C2CC3C=CC2C3)c1 (configuration not stated)
→ -1	1	-8	1.5	0.2%	2.4
O=c1c2c(-c3ccc([N+](=O)[O-])cc3)ccnc2[nH]n1-c1ccccc1
→ 36	0	-6	-0.8	1.5%	0.5
CSc1ccc(CCNC(=O)Cn2ncc3c(=O)oc4ccc(C)cc4c32)cc1
→ 7	·	·	·	-0.9%	-0.7
CCOC(=O)c1cc2n(n1)C(C(F)(F)C(F)(F)F)CC(C)N2 (configuration not stated)
→ -11	2	-14	1.2	-1.3%	-0.2
COc1ccc(CNC(=O)CN2CCN(c3ccccc3)CC2)cc1
→ ·	-10	-17	-3.7	6.3%	·
CN(C)/C=C(/C(=O)c1ccccc1Cl)S(=O)(=O)c1ccccc1
→ 19	1	-4	0.8	-5.0%[38.3 µM]	0.3
COc1cccc(C(=O)Nc2ccc3[nH]c(=O)[nH]c3c2)c1OC
→ 49	?	-5	-2.0	-1.2%	0.0
CN(C(=O)CSc1nnnn1-c1ccc(O)cc1)C1CCS(=O)(=O)C1 (configuration not stated)
→ -3	3	-1	0.4	-0.9%	0.5
N#CC(=Nc1cccc(F)c1)C1=C(O)c2ccccc2C1=O
→ ·	-3	-12	-7.1	-0.8%	-0.5
CCCCN1C[C@H](O)[C@@H](O)[C@H](O)[C@H]1CO
→ -7	1	6	-6.7	1.0%	-0.3

Looked up by structure from above, two records:
Order of values: TRPML1 inh	Six1-Eya2 blk	D2 potentiator	D2 agonist	PINK1 expr mod	TRPML1 ag
O=c1c2c(-c3ccc([N+](=O)[O-])cc3)ccnc2[nH]n1-c1ccccc1
→ 36	0	-6	-0.8	1.5%	0.5
Cc1cc(C)cc(NC(=O)COC(=O)C2CC3C=CC2C3)c1 (configuration not stated)
→ -1	1	-8	1.5	0.2%	2.4

More compounds follow:
Order of values: TRPML1 inh	Six1-Eya2 blk	D2 potentiator	D2 agonist	PINK1 expr mod	TRPML1 ag
CCC(C)NC(=O)C1c2ccccc2C(=O)N1Cc1ccccc1 (configuration not stated)
→ 18	-3	-8	4.7	1.4%	0.7
O=C1c2cnc3nc(SCc4cccc(Cl)c4)nn3c2CC2c3ccccc3CCN12 (configuration not stated)
→ -9	-1	-17	-3.2	5.9%	-0.6
COc1cccc(CNC(=O)CCNC(=O)N2CCn3c2nc2ccccc23)c1
→ -23	1	-6	2.3	-0.2%	1.7
Cc1ccc(C(=O)OCC(=O)NC2CC2)s1
→ 9	2	-2	-1.9	-1.7%	-0.7
Cc1cc(C)n(-c2ccc(NC(=O)C3CCCCN3C(=O)c3ccc(C)s3)cc2)n1 (configuration not stated)
→ -7	1	12	-1.7	0.9%	0.2
COC(=O)CSc1nnc(-c2c[nH]c3ccccc23)o1
→ 2	-14	2	5.9	3.7%	-1.2
CCOc1ccc(S(=O)(=O)N2CCCCC2)cc1NC(=O)c1ccccc1
→ 20	-9	-9	-3.1	-0.1%	0.0
CC(NC(=O)Cc1ccccc1)c1ccccc1 (configuration not stated)
→ ·	5	17	-0.3	0.1%	·
O=C(NC(=S)Nc1ccccn1)c1ccc(-c2ccccc2)cc1
→ -2	-13	-32	-6.5	3.4%	3.5
Clc1ccccc1-c1nc(-c2ccccc2)n[nH]1
→ -3	-2	3	0.8	0.5%	-0.6
COc1cccc(C(C(=O)NC(C)(C)C)N(CCC(C)C)C(=O)CCC(=O)Nc2cc(C)on2)c1OC (configuration not stated)
→ 6	0	-7	-5.1	1.0%	0.0
O=C(NCCc1ccccc1)C1CCN(S(=O)(=O)c2ccc(-n3cnnn3)cc2)CC1
→ 6	5	-3	-2.1	2.4%	0.8
COc1ccccc1C(=O)NC(=O)COC(=O)c1ccc(Cl)nc1
→ 15	8	-10	-2.1	?	-0.4
CCOC(=O)C1=C(CC)Nc2ccccc2N=C1NC(=O)c1ccc(S(=O)(=O)N2CCCC2)cc1
→ 6	1	4	-2.8	4.8%	1.0
O=C(Nc1cc([N+](=O)[O-])ccc1F)c1cccs1
→ -2	-7	-5	-1.9	0.4%	-0.5
CCCC1NC(=O)NC(C)=C1C(=O)OCC (configuration not stated)
→ -3	5	-1	-1.1	1.6%[38.3 µM]	-0.6
CCC(=O)Nc1sc2c(c1C(=O)OC)CCN(Cc1ccccc1)C2
→ 11	-8	-14	-4.9	2.3%	1.8
Cc1ccc(OCC(=O)N2c3ccccc3CC2C)c([N+](=O)[O-])n1 (configuration not stated)
→ -3	-13	-4	-8.2	2.2%	0.1
CCc1ccc(OCCCC(=O)Nc2cccc(C(=O)O)c2)cc1
→ 1	3	3	-0.5	-0.7%	-0.5
COCCN(C(=O)c1csnn1)C(C(=O)NC1CCCC1)c1ccccc1F (configuration not stated)
→ 7	-2	-2	-0.8	-0.6%	-0.2
COc1ccc2cc(Br)ccc2c1CC(=O)NCCCN1CCOCC1
→ -10	-5	-2	3.1	-1.8%	0.1
O=C(C1=C(O)C(=O)N(CC2CCCO2)C1c1ccccc1F)c1ccco1 (configuration not stated)
→ 1	12	-7	-3.8	1.0%	-0.4
O=C(Nc1nccs1)c1cccc(NC(=O)c2ccco2)c1
→ 10	-9	-20	2.3	2.1%	-0.3
CCS(=O)(=O)c1ncc(N(Cc2ccccc2)Cc2ccco2)c(C(=O)Nc2ccc(C)c(C)c2)n1
→ 3	·	·	·	-1.3%	0.1
O=C(Nc1ccc(S(=O)(=O)NCc2ccccc2)cc1)c1ccc(Br)o1
→ -8	-15	-14	-2.7	2.0%	5.5
C[C@H](NC(=O)[C@@H]1CCCN1C(=O)[C@@H]1CCCN1C(=O)c1cccs1)c1ccccc1
→ ·	0	·	·	-0.3%	-0.4
CCOC(=O)[C@@H](NC(=O)/C=C/[C@H]1O[C@@H](n2cc(C)c(=O)[nH]c2=O)C[C@@H]1O)C(C)C
→ -8	28	3	2.9	0.9%	-0.5
CCc1cc(C(=O)N/N=C/c2ccc(OC)cc2)c2ccccc2n1
→ -10	11	-6	-2.5	6.7%	0.2
Cc1ccsc1/C=N/NC(=O)c1sccc1C
→ -9	16	-28	-4.7	6.5%	1.7
Cc1c(C)c([N+](=O)[O-])c(C)c(C)c1N
→ 30	2	-16	-3.1	1.9%	-0.2
CN1CCN(C2Cc3cc(Cl)ccc3Sc3cc(F)ccc32)CC1 (configuration not stated)
→ -8	-1	-25	-5.5	-3.8%	0.2
CC(C)=CCn1c2ccc(NC(=O)Nc3ccc(N(C)C)cc3)cc2c(=O)n1C
→ -17	-26	-1	4.2	4.1%	-0.3
COc1ccc(CCNc2nc3cc(OC)c(OC)cc3c3nc(-c4ccccc4)nn23)cc1OC
→ ?	·	·	·	0.2%	-0.7
CN(C)C(=O)COC(=O)c1ccccc1NC(=O)c1ccco1
→ 0	-5	6	2.1	1.0%	2.0
COc1ccccc1-c1nnc(C2CCN(S(=O)(=O)c3ccc(F)c(C)c3)CC2)o1
→ 22	·	·	·	0.8%	2.7
COC(=O)c1cc(NC(=O)c2ccc(F)cc2)cc(C(=O)OC)c1
→ -4	16	-10	-6.7	0.2%	-0.7
Cc1cc(/C=N/n2cnnc2)c(C)n1-c1ccccc1
→ -8	-10	-12	-1.8	2.0%	-0.7
CCOc1nc2ccccc2cc1/C=C/C(=O)O
→ -7	-1	-1	-2.5	2.7%	-0.1
COc1ccc(-n2ccnc(SCC(=O)NC3CCCC3)c2=O)cc1
→ -6	5	-7	3.2	-1.4%	0.7
CC(C)CN(C(=O)COC(=O)c1ccc(-c2ccccc2)cc1)C1CCS(=O)(=O)C1 (configuration not stated)
→ 20	-10	0	-6.1	0.2%	0.9
COc1ccc(C(=O)Cn2ccsc2=NC(C)=O)cc1
→ 30	-23	-5	-0.3	2.5%	-0.5
CCN(CC)S(=O)(=O)c1ccc(N2CC(C(=O)N3Cc4ccccc4CC3C(N)=O)CC2=O)cc1 (configuration not stated)
→ -14	-13	-6	1.1	2.4%	-0.6
O=c1[nH]c2c(s1)C=Nc1ccccc1N2
→ -8	-24	-2	1.1	-5.0%[38.3 µM]	6.0
NC(=O)c1ccsc1NC(=O)CN1C(=O)C2CC=CCC2C1=O (configuration not stated)
→ 19	-11	16	-2.9	-0.2%	0.5
COc1ccc(NS(=O)(=O)c2ccc(N3CC(O)=C(c4ccccc4)C3=N)cc2)cc1
→ 0	-23	7	-6.2	0.0%	0.4
COc1cc(/C=C2\C(=O)N(c3ccc(NC(C)=O)cc3)N=C2c2ccccc2)ccc1O
→ 3	2	-8	-2.0	-0.8%	1.3
CCNc1ccc(S(=O)(=O)NCCN(C)C)cc1[N+](=O)[O-]
→ -8	3	-16	-5.1	-0.1%	0.1
COc1ccc(C2NC(=O)C(C)S2)cc1 (configuration not stated)
→ -1	4	-4	-2.8	2.6%[38.3 µM]	-0.6
O=S(NCc1ccccc1)C12CC3CC(CC(C3)C1)C2 (configuration not stated)
→ 1	4	1	0.5	1.8%[38.3 µM]	1.0
COc1cc(NC(=O)c2ccc(NC3=NC4CS(=O)(=O)CC4S3)cc2)cc(OC)c1OC (configuration not stated)
→ 6	-4	-5	-3.4	1.8%	-0.6

The results go on:
Order of values: TRPML1 inh	Six1-Eya2 blk	D2 potentiator	D2 agonist	PINK1 expr mod	TRPML1 ag
Cc1cccc(C)c1N(CC(=O)NN=C1CCCCCC1)S(C)(=O)=O
→ 11	-1	8	-1.6	1.7%	0.3
CCN(CC)C(=O)Cn1cc(/C=C(\C#N)C(=O)NC2CC2)c2ccccc21
→ ·	6	-3	-5.1	0.0%	·
COc1ccc(F)c(CN(C)CC2CCCN(CCc3ccc(F)cc3)C2)c1 (configuration not stated)
→ -7	-18	-16	-2.1	14%	0.7
COc1ccc(C2C(C(=O)Nc3cccnc3)=C(C)Nc3nc(-c4ccc(OC)c(OC)c4)nn32)cc1 (configuration not stated)
→ -4	·	·	·	3.5%	-0.4
CCOc1cc(OCC)cc(C(=O)N2CCC[C@@H]2C(=O)N2CCC[C@@H]2C(=O)NCc2ccccc2Cl)c1
→ ·	5	·	·	-1.2%	4.9
O=C(CSc1ccccc1C(=O)O)NCc1ccc(Cl)cc1
→ 16	6	-5	-6.4	2.3%	0.2
CCOC(=O)c1cnc(-n2nc(C)cc2C)nc1NCc1ccccc1
→ 9	-3	4	-1.7	?	1.1
Cc1cccc(C)c1-n1ncc(C(=O)N2CCN(c3ccccc3)CC2)c1C1CCN(C(=O)OC(C)(C)C)CC1
→ 0	·	·	·	-1.3%	16
C[C@@H]1[C@@H](Sc2ccccc2)CC(=O)O[C@@H]1c1ccc(-c2ccccc2)cc1
→ -12&1	4	-11	-1.9	-1.1%	1.5&2.6
O=C(COc1ccc(F)cc1Cl)Nc1ccccc1C(=O)N1CCCCC1
→ -3	3	-3	1.2	2.2%	0.3
CCN(CC)C1CCN(Cc2cn[nH]c2-c2ccc(OC)c(F)c2)C1 (configuration not stated)
→ 15	3	0	-6.1	1.0%	-0.6
CCc1ccc(N2C(=O)Cc3c2nc(N)c(C#N)c3N)cc1
→ 11	-17	-1	3.0	-4.2%[38.3 µM]	0.7
COc1ccc(Cn2ccn(Cc3cccc(OC)c3)c(=O)c2=O)cc1
→ 16	·	·	·	0.6%	2.3
